# BasE inh – blocks the Acinetobacter baumannii siderophore enzyme BasE | actives 0.1% (n = 84,000) | purified BasE, fluorescence polarization binding displacement | AID 485350 | inhibition, % (test concentration not listed);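 active means both replicates above 25% with normal brightness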;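 further: 0% = negative plate control signal and 100% = positive plate control signal; stock transfer was 100 nL into about 30 µL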
# LANA-nucl inh – LANA-nucleosome interaction inhibition | FITC-LANA1-23 / chicken nucleosome fluorescence polarization; hits give low values | z-score (concentration not given with the values) | actives 0.3% (n = 51,000) | AID 720717;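 active means both repeat wells score below -2 in polarization z-score versus plate sample wells, excluding overly bright wells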;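 further: 100 nL library stock added to about 30 µL; numbers are from one replicate; some results filed as inactive read as strong as hits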
#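 Material: Purified chicken nucleosomes with FITC-labelled LANA N-terminal peptide (1-23) | Reagent: 50 nM FITC-LANA1-23 probe | Medium: TEN-BT buffer, pH 7.5 | Times: 10–45 min incubation at room temperature | Detection: Fluorescence polarization | Replication: Duplicates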
# Starred values were filed as active, the others as inactive; · = no result given; & = joins results of further samples. An excerpt, so the mix of outcomes need not match the whole.
SMILES,BasE inh,LANA-nucl inh
COC(=O)c1ccc(Cn2cnc3c(cnn3-c3ccc(F)cc3)c2=O)o1,-0.9,-0.3
COc1ccc(CNC(=O)C(OC(=O)c2cc3sccc3n2C(C)C)C(C)C)cc1 (stereo not given),0.9,0.16
N#Cc1ccc(Cn2c(=O)c(C#N)c3n(c2=O)CCC3)cc1,2.0,·
COc1cc(OC)cc(C(=O)NCC(c2ccc(N(C)C)cc2)N2CCc3ccccc32)c1 (stereo not given),-1.7,-0.099
CCCCS(=O)CSc1nc(-c2cccs2)cc(-c2ccccc2)c1C#N (stereo not given),1.5,·
CCOc1cc(C(C#N)N2CCCCC2)ccc1OC (stereo not given),0.8,-0.47
N#CC1(NC(=O)CSc2nnc(-c3c[nH]c4ccccc34)o2)CCCCC1,-1.4,·
COc1ccc(C(=O)Nc2ccccc2C(=O)NCCC(=O)O)cc1,0.1,2.2
N#Cc1c(C(F)(F)F)cc(=O)[nH]c1SCC(=O)O,3.9,·
Cc1ccc(S(=O)(=O)NC(=O)Oc2cccc3cccnc23)cc1,18,·
CC(=O)Nc1ccc(/C=N/O)cc1,-1.1,·
N#CCCCSc1ncccc1C(=O)O,1.2,-0.14
COC(=O)CSc1nnc(-c2ccccc2)n1-c1ccccc1,0.2,·
Cc1ccsc1/C=N/NC(=O)CN1CCSCC1,1.9,0.073
O=C(/C=C/c1ccco1)Nc1ccccc1F,1.5,-0.34
COc1ccc(NC(=O)CS(=O)CC(=O)Nc2cccc(F)c2)cc1 (stereo not given),4.0,0.034
O=c1ccc(-c2ccc(S(=O)(=O)NCc3ccco3)o2)n[nH]1,1.7,·
Cc1cnn2c3c(cnc12)C(=O)c1ccccc1-3,0.8,0.14
CCOC(=O)c1ccc(-c2ccc(/C=C3/C(=O)Nc4ccccc43)o2)cc1,-13,1.6
Cc1oc2nc[nH]c(=O)c2c1C(=O)OC(C(=O)N1CCCCC1)c1ccccc1 (stereo not given),2.6,·
CC1(C)CC(=O)/C(=C/c2ccco2)CO1,0.8,·
Nc1ccc(CCc2nc3ccccc3[nH]2)cc1,2.9,·
O=C(Nc1ccc2nc(-c3ccccc3)[nH]c2c1)c1ccco1,-3.5,-0.12
COc1cc(C(=O)NC(=S)N2CCCCCC2)cc(OC)c1OC,-2.0,1
CCNC(=O)NC1CCN(c2cc(C)nc3ncnn23)CC1,0.9,-0.61

# (cont.)
SMILES,BasE inh,LANA-nucl inh
CCN(CC)c1ccc(N=c2ccc3ccccc3n2C)cc1,1.0,·
O=C(NCC1CCCO1)c1ccc2c(c1)S(=O)(=O)c1ccccc1C2=O (stereo not given),1.3,·
Cc1cc(C)cc(C(=O)N2CCN=C2c2ccccc2)c1,-1.6,0.3
CCOC(=O)c1sc2nc(N3CCCCC3)c3c(c2c1N)CC(C)(C)OC3,0.7,·
Cc1ccc(Cn2c(/N=C/c3ccc(N(C)C)cc3)nc3ccccc32)cc1,14,·
Cc1nc(NC(=O)CN2CCN(Cc3ccc(F)cc3)CC2)sc1C(=O)N(C)C,1.3,-1.2
CC(C)(C)c1cc(C(=O)CN2CCCCC2)cc(C(C)(C)C)c1O,2.5,0.1
Nc1ccc2nc(CCc3ccccc3)[nH]c2c1,-1.4,-0.074
O=C(CN1CCOCC1)N1c2ccccc2Sc2ccccc21,·,-0.24
FC(F)(F)c1ccc(-c2noc(Cc3ccccc3)n2)cc1,1.7,1.2
Cc1ccc(S(=O)(=O)N2CN(c3ccccc3)c3nc4ccccc4nc32)cc1,-0.9,·
CCNC(=O)c1ncoc1-c1ccc(C)cc1,-0.6,0.51
O=C(Nc1ccccc1)C1CCN(C(=O)/C=C/c2cn(Cc3ccccc3)nn2)CC1,1.9,·
O=C(O)CCC(=O)c1cccnc1,0.5,-0.077
Cc1ccc2c(c1)N(S(=O)(=O)c1cc3[nH]c(=O)c(=O)[nH]c3cc1C)CCO2,0.3,1.3
Cn1c(=O)c(-c2noc(-c3cccs3)n2)cn(-c2ccccc2)c1=O,0.3,-1.5
CC1=NN(c2nc(-c3ccccc3)cs2)C(=O)/C1=C/c1cccs1,3.8,-0.2
O=C(CCS(=O)(=O)Cc1ccccc1)Nc1ccc2c(c1)OCCO2,-1.2,-0.037
O=C(CC12CC3CC(C1)CC(CC(=O)NC1=NCCS1)(C3)C2)NC1=NCCS1,0.9,-1.3
O=C(Nc1ccc(Br)cc1)C1CC(=O)N(c2ccccc2)C(=Nc2ccccc2)S1 (stereo not given),1.9,·
CCOc1ccccc1NC(=O)NC1(C(=O)NCc2ccco2)CCCCC1,0.2,0.23
Cc1ccc(S(=O)(=O)NCC2COc3ccccc3O2)cc1 (stereo not given),-0.3,-0.48
N#Cc1ccc(C(N2CCSCC2)N2CCSCC2)cc1,-1.5,·
O=C(O)CC(CC(=O)Oc1ccccc1N1CCOCC1)c1ccccc1 (stereo not given),1.1,·
c1cncc(-c2nc(Nc3ccc4c(c3)OCO4)c3ccccc3n2)c1,1.8,·

# Going on with the list:
SMILES,BasE inh,LANA-nucl inh
CCOc1cc2c(cc1OCC)C1C(C(=O)N(CC)CC)c3ccccc3C(=O)N1CC2 (stereo not given),1.4,0.42
Cc1ccccc1CNC(=O)C1CCCN(S(=O)(=O)N(C)C2CCCCC2)C1 (stereo not given),1.6,1.4
O=C(O)CCC(=O)Nc1ccc(Br)cc1,1.1,-0.94
CC(C)c1ccc(S(=O)(=O)N2CCOCC2)cc1,0.0,·
CCC(=O)N1c2ccc(C)cc2C(OC(=O)c2ccccc2)CC1C (stereo not given),0.8,-0.42
CCN1C(=O)/C(=C/c2ccccc2NC(C)=O)OC1=S,-3.0,0.29
CC(NC(N)=S)c1ccccc1 (stereo not given),-1.5,·
CC(=O)N1CCc2cc(C(O)CN3CCN(c4ccccn4)CC3)ccc21 (stereo not given),-4.6,0.36
Nc1nc2nc3ccccc3n2c(=O)[nH]1,1.0,·
CCCOc1ccc(C2(C(=O)O)CCCC2)cc1,2.6,·
COc1ccc(NC(=O)CSc2nncn3c2cc2occc23)cc1,-8.4,0.87
COC(=O)c1c(-c2c(Cl)cccc2Cl)noc1NC(=O)NCc1ccccc1,0.6,·
CN1[C@@H]2CCC[C@H]1CC(NC(=O)c1nn(C)c3ccccc13)C2 (stereo not given in full),·,-0.38&0.097
COc1ccc(N=C2SCCCN2C(=O)C2CCCC2)cc1OC,0.6,·
CC(=O)NC(Cc1cnc[nH]1)C(=O)O (stereo not given),2.4,-0.28
COc1cc(C(=O)NCC(c2ccccc2)c2c[nH]c3ccccc23)cc(OC)c1OC (stereo not given),0.2,·
N#CCSc1nc2scc(-c3cccs3)c2c(=O)n1CCc1ccccc1,1.3,·
CSc1ccccc1C(=O)Nc1ccc(Cl)cc1,·,0.86
COc1cc(OC)c(CNc2ccc3cn[nH]c3c2)cc1Br,6.6,0.22
COCCNC(=S)Nc1nc(OC)cc(OC)n1,2.1,-0.5
c1cncc(-c2nc3ccccn3c2Nc2ccc3c(c2)OCCO3)c1,0.8,-0.56
CCOc1ccc(C(N)=O)cc1OC,3.5,·
N#CC1=C(N)C(C#N)(C#N)C(c2ccc(OC(F)F)cc2)C=C1C1CC1 (stereo not given),0.3,·
CN(C)c1ccc2c3c(cccc13)C(=O)N(c1ccccc1)C2=O,16,-0.51
CCN(C(=O)COc1ccc(C)cc1C)C1CCS(=O)(=O)C1 (stereo not given),2.5,·

# Following part.
SMILES,BasE inh,LANA-nucl inh
CCNC(=S)N/N=C/c1ccc(OCC(=O)N2CC(C)OC(C)C2)c(OC)c1 (stereo not given),2.4,·
CN(c1nc2ccccc2[nH]c1=O)C1CCCCC1,0.6,·
COC(CN(C(C)=O)C1CCCc2c1[nH]c1ccc(C)cc21)OC (stereo not given),0.8,·
NC(=O)C1CCCN1c1nc(-c2cccs2)nc2ccccc12 (stereo not given),1.7,·
O=C(O)C1C2C=CC(C2)C1C(=O)NCc1cccs1 (stereo not given),0.3,0.032
CN(C)C(=O)CSc1nc2cc(Cl)ccc2o1,1.7,·
CC(C)(O)C12CC3CC(C1)CC(C(C)(C)O)(C3)C2,1.3,·
C=C1c2ccccc2NC(=O)N1c1ccc(C)cc1,2.5,·
Cc1onc(-c2c(Cl)cccc2Cl)c1C(=O)O/N=C(\N)CN1CCSCC1,0.2,-0.22
CC1CCCN(C(=O)Cn2cc(S(=O)(=O)N3CCN(c4ccccc4F)CC3)c3ccccc3c2=O)C1 (stereo not given),0.3,0.33
CC(CN1CCOCC1)OC(=O)Cc1ccc(Cl)cc1 (stereo not given),0.2,-0.57
COC(CNC(=O)Cn1nc(Cc2cccnc2)c2ccccc2c1=O)OC,0.2,-0.54
N#CCCN(CCN1CCOCC1)C(=S)Nc1ccc(Cl)c(Cl)c1,1.0,·
COc1cccc(/C=N/n2c(N3CCOCC3)nc3ccccc32)c1OC,0.5,·
CC(C)CNC(=O)c1ccc2c(=O)n(CC(C)C)c(=S)[nH]c2c1,1.6,·
C/C=C(\C)C(=O)Nc1ccccc1CC1c2ccccc2CCN1C (stereo not given),·,0.16
CCOC(=O)C1=C(N)Oc2ccc(Br)cc2C1C(C#N)C(=O)OCC (stereo not given),-1.4,-0.023
O=C1Nc2ccccc2N(O)N1c1ccc(S(=O)(=O)N2CCOCC2)cc1,0.7,-1
CC1(C)C=Cc2c(c3occc3c3oc(-c4ccccc4)cc(=O)c23)O1,1.4,·
O=C(CN1C(=O)c2ccccc2C1=O)N1CCN=C1c1ccccc1,1.4,·
N#CCCn1c(=O)n(CCC#N)c(=O)n(CCC#N)c1=O,-1.3,1.5
c1ccc(-n2nnnc2NCC(c2ccco2)N2CCCCC2)cc1 (stereo not given),-0.3,·
CNC(=O)c1sc(-c2ccccc2)nc1C,·,-0.13
CCn1c(SCc2csc(CC(=O)Nc3ccc(C)cc3)n2)nnc1-c1ccco1,1.1,·
CN(C(=O)CSc1ccc2c(c1)OCCO2)c1c(N)n(Cc2ccccc2)c(=O)[nH]c1=O,1.6,·

# Later entries:
SMILES,BasE inh,LANA-nucl inh
CCC(CC)NC(=O)c1cc(Cl)ccc1Cl,1.6,0.48
CC(CCc1ccco1)NC(=O)Nc1cn(C)c(=O)c2ccccc12 (stereo not given),3.4,-0.017
Cc1occc1C(=O)Nc1ccc(S(=O)(=O)N(C)C)cc1,-7.4,2.4
Cc1cc(C(F)(F)F)nc(NC(C)c2ccccc2)n1 (stereo not given),0.1,-0.51
O=S(=O)(c1ccc(S(=O)(=O)C(F)(F)F)cc1)C(F)(F)F,0.4,-0.11
O=c1cc(O)nc(SCc2c(F)cccc2Cl)n1C1CCCC1,1.9,·
CCCNC(=O)c1ccc(SC)cc1OC,0.6,0.93
CNC(=O)c1[nH]nc2c1CCc1ccccc1-2,1.0,-0.73
CCN(CC)C(=O)c1cn(CCC#N)nc1-c1ccc2ccccc2c1,-0.6,-0.044
CCc1nc(N)nc(N)c1-c1ccc(Cl)cc1,-3.3&-1.6,0.17&0.43&-0.014
O=C(NC1CCCc2ccccc21)C1=NN(c2ccccc2)C(=O)CC1 (stereo not given),0.1,·
COc1cccc(NC(=O)Cn2nc(-c3ccccc3)ccc2=O)c1,1.4,0.16
CCC(=O)Nc1cc(-c2nc3cc(OC)ccc3o2)ccc1C,1.0,-0.011
CCCCNC(=O)c1cc2cc(CC)ccc2[nH]1,-4.2,2.3
Cc1cc(C)c2c(n1)sc1c(SCC(=O)c3ccc(Br)cc3)ncnc12,2.9,·
CC(C)(C)OC(=O)/N=C(\N)n1cccn1,-0.7,·
C=CCN1C(=O)C2(NC(=O)c3ccccc3N2)c2ccccc21 (stereo not given),2.7,-0.32
CN1CCN(/N=C/c2nc(-c3ccccc3)n3ccccc23)CC1,-0.8,·
